UUG fidelity – alters start codon recognition fidelity in yeast | S. cerevisiae UUG-firefly luciferase reporter, luminescence/redox ratio | 0.13% of 350,000 active | AID 602363 | activity score, % at 18.7 µM;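 active = replicate mean at a twofold rise or more, about +100% in these data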;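 note: firefly luciferase made from a UUG start codon reports start codon fidelity; reporter light over untreated wells divided by growth signal over untreated wells; some hits fall short of that in this replicate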
MT1-MMP act inh – MT1-MMP (human) activation inhibition | 0.061% of 360,000 active | P50281 | HT1080 RFP-PRO-GFP cells, GFP/RFP ratio fluorescence, overnight; percent of plate control window, DMSO zero | GFP/RFP ratio change, % at 20 µM;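 active = GFP/RFP ratio change of at least 30% with cell ATP level not reduced by more than half and red fluorescence within 50% of control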; note: strong numbers were not always called active
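Material: RFP-PRO-GFP reporter HT1080 cells. Dosing: single-point 20 µM compound, 1% DMSO. Controls: DMSO and RFP-L50D-GFP cell wells. Timing: cells overnight before dosing, compound overnight, 37 °C, 5% CO2. Measure: GFP/RFP fluorescence ratio.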
MT1-MMP act inh RFP – recorded beside MT1-MMP act inh, whose call it bears; RFP signal change, %; measured here: RFP expression control read;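 0 = vehicle wells; hits needed this value within 50% of zero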
An asterisk follows results filed as active; & = joins results of further samples. An excerpt (hit frequency here may not be typical).

UUG fidelity | MT1-MMP act inh | MT1-MMP act inh RFP | smiles
-29.0 | 0.7 | 6.5 | COc1cccc(CN2CC(C(=O)NCCc3nccs3)CCC2=O)c1 (stereo not given)
-9.0 | 1.2 | 1.2 | Cc1ccc(C)c(N2CCN(C(=O)CCc3nc(-c4cccc(F)c4)no3)CC2)c1
-1.4 | 1.5 | 2.1 | O=C(COC(=O)Cc1cccc(C(F)(F)F)c1)NCc1ccco1
-9.1 | -4.5 | 3.2 | CC(=O)N1CCN(C(=S)NC(=O)c2ccc(F)cc2)CC1
-7.6 | -1.8 | -0.6 | COc1cccc(CN(C)C[C@@H]2OCc3ccccc3-c3c(n(C)c4ccccc34)C(=O)N([C@@H](C)CO)C[C@H]2C)c1
-24.6 | -2.1 | -18.1 | COc1ccc(Cl)cc1NS(=O)(=O)c1cccc(C(=O)NC2CCN(Cc3ccccc3)CC2)c1
-0.3 | -4.9 | -6.3 | O=C(NCC1COc2ccccc2O1)c1cc(S(=O)(=O)N2CCOCC2)c(Cl)cc1Cl (stereo not given)
-7.6 | 1.2 | 1.7 | Clc1ccc2nc(-c3ccccc3)c(CC3CCCCC3)n2c1
-8.9 | -2.9 | 1.3 | O=C1NC(=O)C2(CCCCC2C2CCCCC2)N1 (stereo not given)
-5.1 | 8.3 | -5.9 | Cc1cccc(NC(=O)COC(=O)c2ccc(C)c(S(=O)(=O)N3CCCCC3)c2)c1
-5.5 | 0.9 | 2.4 | COc1ccc(-c2[nH][nH]c(=O)c2NC(=O)c2ccc(C)cc2)cc1
-12.9 | -1.8 | -0.5 | Nc1ccccc1CCc1ccccc1N
71.1 | 3.8 | 0.5 | O=C(Cn1cc(COc2ccc(Br)cc2[N+](=O)[O-])nn1)c1ccc(O)cc1
-9.4 | 4.8 | 3.4 | O=Nc1c(O)ccc2cc(S(=O)(=O)O)ccc12
-7.6 | -0.3 | 4.5 | CC(=O)Nc1sc(C)c(C)c1C(=O)OCC(=O)NCc1ccc(Cl)cc1
-22.5 | -1.2 | 2.4 | O=C(O)CNC(=O)C1(NC(=O)OCc2ccccc2)CCCC1
-2.6 | 6.8 | -4.3 | COc1ccc(NC(=O)CN(C)C(=O)c2cccc(Oc3ccccc3)c2)cc1
-4.2 | -1.6 | 3.4 | O=C(O)Cc1cccc(=O)c(O)c1C(=O)O
-12.6 | -0.8 | 0.6 | CCOc1ccc(NC(=O)CN(C)C(=O)Cn2c(=O)cnc3ccccc32)cc1OCC
-3.2 | 27.6 | -29.0 | CC(=O)c1ccc(OCC(=O)Nc2cccc(S(=O)(=O)N3CCCC3)c2)cc1
-0.7 | 7.1 | -6.9 | CNc1snc(C)c1C(=O)OC(C)C(=O)Nc1cccc(OC)c1 (stereo not given)
-1.2 | -1.5 | -1.7 | CCCC1NC(=O)c2cccnc2-n2c1nc1cc(C)cc(C)c1c2=O (stereo not given)
-3.6 | 2.1 | 4.3 | Cc1cccc(NC(=O)CCC(=O)N2CCOCC2)n1
-31.1 | -1.5 | -7.7 | O=C1[C@H]2CCC=C[C@H]2[C@H](c2cccc(Br)c2)N1Cc1ccccc1
-17.2 | -3.0 | -5.6 | COc1ccc(CN(C)C(C)C(=O)Nc2ccc(S(=O)(=O)N3CCCCC3)cc2)cc1F (stereo not given)
10.7 | 1.4 | 3.7 | O=C(Cn1cc(COc2cccc([N+](=O)[O-])c2)nn1)c1ccc(O)cc1
8.0 | 0.8 | -5.4 | C=C(C)[C@@H]1C2=CC(C(=O)OC)=C(C[C@H](C(=C)C)[C@H]3O[C@H]3C3=C[C@H]1OC3=O)O2
-16.8 | -2.5 | 2.6 | O=C(OCC(=O)c1ccc[nH]1)C1=COCCO1
-4.5 | 0.3 | 4.3 | O=C(COC(=O)c1cccc(S(=O)(=O)N2CCCCCC2)c1)Nc1ccccc1C(F)(F)F
-5.5 | 4.4 | 7.4 | COc1ccc([C@H]2N[C@]3(CCCN(Cc4ccco4)C3=O)[C@H]3C(=O)N(C)C(=O)[C@@H]23)cc1
-24.0 | -0.8 | 2.9 | Nc1ccccc1SC(CC(=O)c1ccccc1)c1ccccc1 (stereo not given)
-14.5 | 8.0 | 4.7 | COc1cc(NC(=O)Cn2cnc(C(=O)Nc3ccc(C)c(C)c3)n2)cc(OC)c1OC
-0.2 | -0.8 | 3.4 | O=C(CCCOc1ccccc1)N1CCN(S(=O)(=O)c2ccccc2)CC1
-11.5 | 4.8 | -11.2 | COc1ccc(NC(=O)c2cc(C3CCCCN3S(=O)(=O)c3cccs3)on2)c(C)c1 (stereo not given)
0.9&1.9 | 2.0 | 2.7 | C[C@@H]1CN([C@@H](C)CO)C(=O)CCCn2nncc2CO[C@@H]1CN(C)C(=O)Nc1ccccc1
-15.4 | 1.5 | 3.5 | Cc1cc(S(=O)(=O)NCCCN2CCOCC2)ccc1Br
-16.1 | 1.7 | 5.6 | CCCCCC(=O)N1C[C@H](O)[C@@H](n2cc(C3CC3)nn2)C[C@@H]1c1ccc(OC)cc1
-9.4 | -0.8 | -2.1 | O=C(Cn1cnc2c(OCc3ccccc3)ncnc21)NCCc1c[nH]c2ccccc12
-2.4 | 4.2 | 7.0 | CN(C)CCNc1ncnc2c1ncn2[C@H]1CN(Cc2ccco2)C[C@@H](CO)O1
-0.6 | 1.9 | 1.6 | CN(CCCn1ccc(NC(=O)OCc2ccccc2)nc1=O)CCc1ccccn1
-25.0 | -6.5 | -5.6 | CC(Oc1ccc(F)cc1)C(=O)Nc1cc(S(=O)(=O)N2CCCCC2)ccc1N1CCN(C)CC1 (stereo not given)
-12.8 | -3.4 | 3.5 | CCCCn1c(N)c(N(CCC)C(=O)C2CCCC2)c(=O)[nH]c1=O
-5.2 | -5.0 | 2.0 | CSc1ccccc1C(=O)N1CCN(S(=O)(=O)c2sc(C(=O)O)c(C)c2C(=O)O)CC1
-13.9 | -1.1 | 2.8 | Cc1cnc(C(=O)OCC(=O)Nc2ncc(Cl)cc2Cl)cn1
-13.7 | 0.3 | -0.7 | CC(=O)Nc1ccc(NC(=O)c2cc(-c3ccc(F)cc3C)n[nH]2)cc1
-0.7 | -0.5 | 3.3 | CCOC(=O)C1=C(CC)Nc2ccccc2N=C1NC(=O)c1ccc(OC)c(S(=O)(=O)N2CCOCC2)c1
-4.0 | -0.7 | -3.1 | COc1ccc(Cc2c(-c3ccco3)nc3ccc(Cl)cn23)c(C)c1
-8.2 | 0.8 | -1.6 | CCOCc1c(C(=O)OCC(=O)Nc2ccccc2C(N)=O)oc2ccccc12
-13.9 | 3.0 | 5.3 | Cc1ccc([C@H]2C[C@H](O)[C@@H](n3cc(-c4ccc(F)cc4)nn3)CN2CC2CCCCC2)cc1
14.8 | -1.8 | -0.1 | O=C(CN1CCN(S(=O)(=O)c2ccc(F)cc2)CC1)NCC1(N2CCOCC2)CCCCC1
-0.4 | 0.1 | -0.6 | Cc1cc(C)cc(NC(=O)CSc2nnc(CNC(=O)c3ccco3)n2C)c1
-8.9 | -7.1 | 0.7 | CCOC(=O)c1c(NC(=O)COC(=O)c2cccc([N+](=O)[O-])c2)sc(C(=O)N(C)C)c1C
-5.3 | 3.5 | 4.7 | Cc1ccc([C@H]2C[C@@H](n3cc(C4CC4)nn3)[C@H](O)CN2C(=O)c2cccs2)cc1
-18.5 | -2.2 | 0.5 | COc1cccc(CNC(=O)COC(=O)c2nc(Cl)c(Cl)c(Cl)c2Cl)c1
-19.0 | 1.2 | 2.1 | O=C(Nc1cccc2cccnc12)c1csc(COCCO)n1
-14.6 | -2.0 | 1.3 | C=Cn1cc(CNC[C@H]2O[C@@H](n3cnc4c(=O)[nH]c(N)nc43)[C@H](O)[C@@H]2O)c(C)n1
-12.8 | 2.8 | 2.4 | O=S(=O)(CCNCc1ccccc1)NC1CCCCC1
-20.4 | -0.8 | 0.9 | CCN(CC)c1ccc(S(=O)(=O)N2CCOCC2)cc1NC(=O)COC(=O)/C=C/c1ccco1
-6.4 | 5.7 | 2.0 | CCC(O)c1cnc(OCc2ccccc2)nc1OCc1ccccc1 (stereo not given)
-15.5 | 15.0 | -27.9 | COc1ccc(CNC(=O)c2cccc3c(-c4ccc(F)c(F)c4)coc23)cc1OC

(further entries)
UUG fidelity | MT1-MMP act inh | MT1-MMP act inh RFP | smiles
-20.9 | -18.8 | 3.0 | COc1ccc(-c2cnc3c(NC(C)=O)cc(-c4ccsc4)cn23)cc1OC
-5.8 | 1.9 | 1.5 | COc1cccc(C=NNC(=O)C2CC2)c1
3.7 | 3.6 | 3.6 | CC(C)(C)c1ccc(CC(=O)N2CCC2(C)C(=O)NS(=O)(=O)c2ccc3c(c2)CCO3)cc1 (stereo not given)
0.7 | 15.9 | -2.4 | COc1ccc(S(=O)(=O)N2CCCCC2)cc1NC(=O)C1CC1C (stereo not given)
0.4 | 2.2 | -8.7 | O=C(CN1CCN(C(=O)c2cccc(S(=O)(=O)N3CCCC3)c2)CC1)Nc1ccccc1Cl
-3.2 | -0.8 | 0.3 | COc1cc(CNC[C@H]2O[C@@H](n3cc(C)c(=O)[nH]c3=O)C[C@@H]2O)ccc1OCc1cccc(Cl)c1
-8.3 | -1.8 | -1.6 | COc1cccc(NC(=O)COC(=O)/C=C/c2ccco2)c1
-4.6 | -34.9 | 1.9 | Cc1nc(C)c(C(=O)OCC(=O)Nc2ccccc2SCC#N)s1
-9.4 | 1.8 | 0.8 | Cc1ccc(OCC(=O)N(C)C2CCCCC2)c([N+](=O)[O-])n1
1.9 | 1.8 | -1.4 | Cc1ccc(S(=O)(=O)N2C[C@H]3[C@H]4C(=O)N(Cc5ccccc5)C(=O)[C@H]4CC(=O)[C@H]3[C@@H]2c2cccc3ccccc23)cc1
-11.2 | -9.9 | -6.3 | COc1cc(OC)cc(-c2sc3ccc(OC)cc3c2-c2ccc(OCCN3CCCCC3)cc2)c1
-18.0 | -8.2 | -32.1 | O=C(OCCOc1ccc(Cl)cc1)c1cc(S(=O)(=O)N2CCCCC2)ccc1N1CCOCC1
-7.2 | 0.5 | -1.9 | CCC1CCc2sc(C(=O)NCC(c3ccc(OC)cc3)N3CCOCC3)cc2C1 (stereo not given)
-12.7 | -7.0 | -17.8 | COCCn1c(C)cc(C(=O)COC(=O)c2[nH]c(C)c(C(C)=O)c2C)c1C
-10.0 | -0.1 | -0.6 | CCCCN1C(=O)C(=O)N(CC(=O)Nc2ccc(C(N)=O)cc2)C1=O
-4.1 | 1.7 | 2.4 | CCCS(=O)(=O)NC(=O)C1(C)CCCN(C(=O)COCc2ccccc2)C1 (stereo not given)
4.0 | 6.6 | 7.8 | Cc1ccccc1S(=O)(=O)N1C[C@H]2[C@H]3C(=O)N(c4ccccc4)C(=O)[C@H]3CC(=O)[C@H]2[C@@H]1c1ccc(Cl)cc1
-14.0 | -5.9 | -3.5 | O=C(NCc1ccccc1Br)c1cccc2c1C(=O)c1ccc(-c3ccc(OC(F)(F)F)cc3)cc1S2(=O)=O
-18.1&-1.1 | 1.2 | 6.9 | C[C@H]1CN([C@@H](C)CO)C(=O)CCCn2nncc2CO[C@@H]1CN(C)S(=O)(=O)c1ccccc1
-18.2 | 3.6 | -0.5 | Cc1cccc(NC(=O)c2nc[nH]c2C(=O)NC[C@H](C)O)c1
-0.9 | 4.2 | -0.9 | COC[C@H](NS(=O)(=O)c1ccc(Br)cc1F)[C@@H](O)c1ccccc1
-23.4 | 0.9 | 5.1 | Cn1nc(C(C)(C)C)cc1C(=O)N1CCC(C)(C(=O)NS(=O)(=O)C2CC2)C1 (stereo not given)
1.4 | -1.0 | -6.9 | N#CC(CCc1ccc([N+](=O)[O-])cc1)(CCc1ccc([N+](=O)[O-])cc1)C(N)=O
-38.8 | -2.8 | -0.5 | Oc1cccnc1CN1CCCCC1
-13.6 | 4.9 | 7.8 | O=C1C2C3CCC(O3)C2C(=O)N1c1nccs1 (stereo not given)
-9.1 | -15.7 | -0.7 | CCN(CC(=O)Nc1c(F)cccc1F)C(=O)Cc1ccc(S(=O)(=O)N2CCOCC2)s1
-12.3 | -1.5 | 4.4 | Cc1ccc(NC(=O)CN(C)C(=O)c2ccc(NS(=O)(=O)c3ccc4[nH]c(=O)[nH]c4c3)cc2)cc1

Reprinted at random: 6 entries already listed
UUG fidelity | MT1-MMP act inh | MT1-MMP act inh RFP | smiles
1.4 | -1.0 | -6.9 | N#CC(CCc1ccc([N+](=O)[O-])cc1)(CCc1ccc([N+](=O)[O-])cc1)C(N)=O
-9.1 | -15.7 | -0.7 | CCN(CC(=O)Nc1c(F)cccc1F)C(=O)Cc1ccc(S(=O)(=O)N2CCOCC2)s1
0.4 | 2.2 | -8.7 | O=C(CN1CCN(C(=O)c2cccc(S(=O)(=O)N3CCCC3)c2)CC1)Nc1ccccc1Cl
-11.2 | -9.9 | -6.3 | COc1cc(OC)cc(-c2sc3ccc(OC)cc3c2-c2ccc(OCCN3CCCCC3)cc2)c1
-13.6 | 4.9 | 7.8 | O=C1C2C3CCC(O3)C2C(=O)N1c1nccs1 (stereo not given)
1.9 | 1.8 | -1.4 | Cc1ccc(S(=O)(=O)N2C[C@H]3[C@H]4C(=O)N(Cc5ccccc5)C(=O)[C@H]4CC(=O)[C@H]3[C@@H]2c2cccc3ccccc23)cc1

Some of the entries so far, bar-delimited.
SMILES | UUG fidelity | MT1-MMP act inh | MT1-MMP act inh RFP
COc1cc(CNC[C@H]2O[C@@H](n3cc(C)c(=O)[nH]c3=O)C[C@@H]2O)ccc1OCc1cccc(Cl)c1 | -3.2 | -0.8 | 0.3
COc1cccc(NC(=O)COC(=O)/C=C/c2ccco2)c1 | -8.3 | -1.8 | -1.6
